2A firefly: FMDV 2A StopGo reporter, firefly signal; HEK cells with a luciferase reporter of 2A StopGo recoding; Potency, µM (titrated, usually from 57.5 µM), for the others: top-dose signal change, negative = less light; actives 0.23% (n = 120,000); active = well fitted falling curve with a large enough effect; inconclusive = small, poorly fitted or top-dose-only effect; inactive = no such curve, though single readings can be large or run the other way; note: nearly all actives have a fitted effect of over 60% in size; overnight with compound
2A Renilla: lowers the Renilla signal of an FMDV 2A StopGo reporter; HEK cells with a luciferase reporter of 2A StopGo recoding; Potency, µM (series often up to 57.5 µM), for the others: at the highest dose signal change, negative = less light; actives 0.32% (n = 120,000); AID 1745857; active means well fitted falling curve with a large enough effect; inconclusive means small, poorly fitted or top-dose-only effect; inactive means no such curve, though single readings can be large or run the other way; note: nearly all actives have a fitted effect of over 55% in size; overnight with compound
* hit, by the source's call; ? = inconclusive; & = joins results of further samples; [ ] = another dose, or the depositor's remark. % is set by controls: 0 for no effect and ±100 for the full control effect; potency is the fitted concentration of half-maximal effect. Not all compounds are listed; count on the stated rates, not on these rows.

SMILES | 2A firefly | 2A Renilla
Cc1nc(SC(C)c2ccc(F)c(Cl)c2)sc1CC(N)=O (centres undefined) | 51%[activator] | -4%
CC(C)CC(=O)Nc1cccc(C(=O)Nc2cccc(C(=O)O)c2)c1 | ? | 3%
CCOc1ccc(C(=O)N(c2ccc(C)cc2)C2C=CS(=O)(=O)C2)cc1 (centres undefined) | -15% | -16%
O=C(CSc1ncnc2sc3c(c12)CCCC3)Nc1ncc(Cl)cc1Cl | -9% | -11%
COc1ccc(NC(=O)Cn2nc(SC)c(S(=O)(=O)c3ccc(C)cc3)c2N)cc1OC | -9% | 62%[activator]
COC(=O)CC1=C(C(=O)OC)C(c2ccc(C(=O)OC)cc2)C(C#N)=C(N)O1 (centres undefined) | 19% | 22%
O=C(Nc1nc2ccc(F)cc2s1)c1nc(SCc2ccccc2F)ncc1Cl | -15% | -10%
O=C(Cc1c[nH]c2ccccc12)Nc1ccccc1Cl | 0% | 9%
COc1ccc(COC(=O)C2=C(C)NC3=C(C(=O)CCC3)C2c2ccccc2C(F)(F)F)cc1 (centres undefined) | -16% | 3%
CCn1cc(C(=O)NCCCOC(C)C)c(=O)c2cc(S(=O)(=O)N(C)C3CCCCC3)ccc21 | -16% | 256%[activator]
O=C(O)/C=C/c1ccc([N+](=O)[O-])cc1 | 16% | 3%
O=C(NC1CCCc2ccccc21)c1cc2c(Cl)nc3ccccc3c2s1 (centres undefined) | 16% | 74%[activator]
CCOC(=O)c1ccc(NC(=O)CN2C(=O)C(C)(C)c3ccccc32)cc1 | -14% | -13%
Cc1ccc(-c2csc(NC(=O)c3cc4cnn(C(C)C)c4nc3C)n2)cc1 | 93%[activator] | -23%
O=C(Nc1ccccc1C(F)(F)F)N1CCC2(CC1)Oc1ccccc1C(=O)N2Cc1ccccc1F | 27% | -7%
Cc1ccc(/C=C/c2nc3ccccc3c(=O)n2-c2ccccc2)s1 | 20% | -6%
CC(C)OC(=O)C(C#N)c1nc2ccccc2nc1N1CCN(Cc2ccccc2)CC1 (centres undefined) | 2% | -4%
Cc1cc(C)c(/C=C/c2onc(C)c2S(=O)(=O)N2CCC(C(=O)Nc3ccc(Cl)cc3C)CC2)c(C)c1 | ? | -4%
COc1cc(-c2c(NC(=O)C(C)C)oc3c(C)cccc3c2=O)cc(OC)c1OC | 16% | 8%
Cc1ccc(-c2noc(-c3cc4cc(Cl)ccc4oc3=O)n2)cc1 | -6% | -3%
CCCC(=O)OCc1cnc(C)c2oc(=O)c(C(=O)Nc3ccccc3)cc12 | -1% | -7%
Cc1ccc(NC(=O)N2CCN(S(C)(=O)=O)CC2)c(C)c1 | 5% | -7%
COc1cccc(/C=C/c2nc(C#N)c(NCCc3ccc(OC)c(OC)c3)o2)c1 | -13% | 33%[activator]
CC(C(=O)N1CCN(c2ccccc2F)CC1)n1c(=O)c(C(F)(F)F)nc2ccccc21 (centres undefined) | 4% | -1%
C(#CCN1CCN(Cc2ccccc2)CC1)COCCOC(c1ccccc1)c1ccccc1 | -6% | -5%
COc1ccc2cc(C(=O)/C=C/c3ccc(C(=O)O)cc3)ccc2c1 | 9% | 13%
N#CCCn1cc(C(=O)Nc2ccccc2Cl)c(-c2cccs2)n1 | 17% | 20%
O=C1CCCC2=C1C(c1ccc(Br)cc1)n1nc(-c3ccco3)nc1N2 (centres undefined) | 21% | 0%
CCOC(=O)C(O)c1ccccc1 (centres undefined) | -17% | -11%
CN(CC(=O)NC(=O)NCC(F)(F)F)c1ccccc1 | -13% | -3%
O=C(CN1C(=O)CC(c2ccco2)Sc2ccccc21)Nc1ccc(OC(F)(F)F)cc1 (centres undefined) | -12% | -3%
O=C1COc2ccc(-c3csc(Nc4cccc(Br)c4)n3)cc2N1 | ? | ?
Cc1ccccc1Cn1c(=O)n(CCCCCC(=O)NCc2ccc3c(c2)OCO3)c(=O)c2sccc21 | 31%[activator] | -4%
O=C(Nc1ccccc1Cl)N1CCSc2ccccc21 | -3% | 2%
CCCc1cc(=O)oc2cc(C)cc(OC(C)C(=O)NCc3ccncc3)c12 (centres undefined) | 18% | 10%
Cc1ccc(-n2nnc(C(=O)OCc3ccccc3C)c2C)cc1 | 136%[activator] | 28%
C=CCC(C(=O)c1ccccc1)[N+](C)(C)CC=C (centres undefined) | -4% | 3%
CC(=O)c1cn(CC(=O)NCc2ccc(F)cc2)c2ccccc12 | 12% | ?
Cc1ccc(C)c(NC(=O)CCCn2c(C)c3cnn(-c4ccccc4)c(=O)c3c2C)c1 | -17% | -12%
CC(C)(C)c1ccc(-c2nnc(-c3ccccc3NC(=O)c3cccc(C(F)(F)F)c3)o2)cc1 | -11% | -6%

Part of the list above, as a markdown table.
| Compound | 2A firefly | 2A Renilla |
| --- | --- | --- |
| CN(CC(=O)NC(=O)NCC(F)(F)F)c1ccccc1 | -13% | -3% |
| CCCc1cc(=O)oc2cc(C)cc(OC(C)C(=O)NCc3ccncc3)c12 (centres undefined) | 18% | 10% |

The listing continues:
SMILES | 2A firefly | 2A Renilla
COc1ccc(CCNc2nc3ccccc3c3nc(-c4cccc(C)c4)nn23)cc1OC | 72%[activator] | -6%
CC(NC(=O)C(=O)c1c[nH]c2ccccc12)c1ccccc1 (centres undefined) | 129%[activator] | 48%[activator]
C(=N\N=C1c2ccccc2-c2ccccc21)/c1cccnc1 | 28% | 6%
COc1ccc(Nc2nc(N3CCN(CCO)CC3)nc3nccnc23)cc1 | -6% | -17%
CCCCn1c(SCC(=O)O)nc2c1c(=O)[nH]c(=O)n2C | 3% | 5%
COc1cc(OC)cc(-c2nc3nc(C)c(CCC(=O)Nc4ccc(C)c(C)c4)c(C)n3n2)c1 | 0% | -8%
COCCn1cnnc1SCc1ccc(Cl)cc1 | 49%[activator] | 11%
NC(=O)C12CC3CC(CC(Cl)(C3)C1)C2 | 0% | 22%
O=[N+]([O-])c1ccccc1/C=C/C=N/Nc1ccc(Cl)nn1 | 95%[activator] | 8%
Cc1ccccc1C(=O)Nc1cnc2sc3c(n2c1=O)CCC(C(C)(C)C)C3 (centres undefined) | 20% | -3%
CCN(Cc1cccs1)C(=O)NCc1ccc(F)cc1 | -1% | -2%
Cc1cccc(/C=N/Nc2cc(C(F)(F)F)ccc2Cl)c1 | 6% | 5%
Cc1cccc(C)c1NC(=O)C(NS(=O)(=O)c1cccs1)c1ccccc1 (centres undefined) | -13% | 24%
CNC(=O)c1ccc(-c2nc(CN3CCN(C(=O)Nc4ccc(C)cc4)CC3)c(C)o2)cc1 | 37% | 15%
Cc1cc(N2CCCC2)n2nc(-c3ccccc3C)nc2n1 | 0% | 22%
Clc1ccc(-c2noc(CNC3CCCCC3)n2)cc1 | 89%[activator] | 0%
Cc1ccc(C(C)C)c(OCC(=O)Nc2ccc3c(c2)nc(CCNC(=O)c2ccco2)n3C)c1 | -7% | -6%
CCN(C(=O)Cn1cc(S(=O)(=O)N2CCN(c3ccccc3F)CC2)c2ccccc2c1=O)c1ccc(C)c(C)c1 | -13% | -6%
CCCC(=O)OCc1cnc(C)c2oc(=O)c(C(=O)Nc3ccc(F)cc3C)cc12 | -18% | -13%
COC(=O)CC(N)c1cccc(C)c1C (centres undefined) | 0% | 0%
COc1cccc(NC(=O)c2nn(CC(C)C)c(=O)c3ccccc23)c1 | 0% | 14%
COc1ccc(CC(=O)Nc2ccc(OC)c3ncccc23)cc1 | -14% | -25%
COC(=O)c1ccc(Oc2c(C)oc3cc(OC(=O)c4ccccc4)ccc3c2=O)cc1 | 3% | -9%
COc1ccc(C(=O)N2CCCC2=O)cc1 | 21%[11.5 µM] | 2%
CN1CCc2c(sc(NC(=O)CSc3ccccc3)c2-c2nc3ccccc3s2)C1 | -7% | 7%
O=c1[nH]c2ccc(NCc3ccc(-c4ccc(Br)cc4)o3)cc2[nH]1 | 10% | -9%
COc1ccc(CNCc2c(C(=O)O)c(C)n(Cc3ccccc3C)c2C)cc1OC | -5%&-19% | 95%&137%[activator]
Cc1cccc(NC(=O)c2oc3ccc(S(=O)(=O)N4CCCCC4)cc3c2C)c1C | -9% | 0%
COc1ccccc1CNc1nc2ccccc2nc1NS(=O)(=O)c1ccc(Cl)cc1 | 39%[activator] | -5%
CC(C(=O)NC1CCCC1)N1CCC(C(=O)NCc2ccco2)CC1 (centres undefined) | -5% | -10%
N#C/C(=C\c1ccc(Cl)cc1)c1nc(-c2cc3c(ccc4ccccc43)oc2=O)cs1 | -14% | -9%
CNC(=O)CCS(=O)(=O)Cc1coc(-c2ccc(C)cc2C)n1 | 62%[activator] | -6%
Cc1cc(NC(=O)c2ccccc2F)ccc1-c1nc2ccccc2s1 | 68%[activator] | -7%
O=S(=O)(c1ccc(Cl)cc1)c1nc(-c2ccccc2Br)oc1NCc1ccccc1 | -17% | 0%
CCC1CCC(NC(=S)NCc2ccc(F)cc2)CC1 (centres undefined) | 0% | 41%[activator]
CC1C(=O)CCN(C(C)C)C1C (centres undefined) | 7% | 6%
Cc1cccc(NC(=O)/C=C/c2cccs2)c1C | 158%[activator] | 8%
CC1CCc2c(sc(NC(=O)COCC(=O)O)c2C(=O)Nc2ccccc2)C1 (centres undefined) | 7% | 4%
CCOc1ccc(CCNC(=O)C2COc3ccccc3C2)cc1OCC (centres undefined) | -13% | 50%[activator]
Cc1cc(Br)ccc1NC(=O)CCNS(=O)(=O)c1cccc2nonc12 | 1% | 67%[activator]
O=S1(=O)c2ccccc2N(Cc2cccc(C(F)(F)F)c2)c2ccccc21 | 7% | -3%
COc1cccc(N2CCN(C(=O)CCSCc3ccccc3F)CC2)c1 | -17% | ?
COc1cccc(-c2nc(CS(=O)CC(=O)NCc3ccc4c(c3)OCO4)c(C)o2)c1 (centres undefined) | 8% | 24%
CC(OC(=O)C1CCN(S(=O)(=O)c2ccc(C(C)(C)C)cc2)CC1)C(=O)N1CCCCCC1 (centres undefined) | ? | -24%
CCOc1ccc(CNC(=O)CSc2nnc(C)c3c(C)n(-c4ccccc4)nc23)cc1 | -8% | -12%
Cc1occc(=O)c1OCc1noc(C(=O)NCc2cccnc2)n1 | -18% | -22%
CC1=C(C(=O)OC(C)(C)C)C2(C(=O)Nc3ccccc32)C(C(=O)OC(C)C)=C(N)O1 (centres undefined) | -6% | -8%
N#Cc1ccc(OCCOC(=O)c2ccco2)cc1 | 14% | 7%
CC(CNC(=O)c1cc2cc(S(=O)(=O)N3CCCCC3)ccc2n1C)c1ccccc1 (centres undefined) | -37% | -37%
Cc1ccc(CNC(=O)c2cccn2-c2nnc(N3CCCC3)s2)cc1 | -3% | 24%
O=C(NCCn1nc(-c2ccccc2)ccc1=O)c1ccc(Br)cc1 | -1% | 5%
CCOc1ccc(N(CC(=O)Nc2ccc(OC)cc2)S(=O)(=O)c2ccc(Cl)cc2)cc1 | -12% | 0%
Clc1ccc(N/N=C/c2cccc3ccccc23)cc1Cl | 0% | 28%
CCOc1ccccc1NC(=O)C(OC(=O)c1cc(OC)c(OC)cc1OC)c1ccccc1 (centres undefined) | -6% | 30%[activator]
COC(=O)c1ccc(NC(=O)c2cc(-c3cc(C)sc3C)nc3onc(C)c23)cc1 | 6% | 0%
Cn1c(=O)c2c(ncn2CC(=O)OCc2ccccc2F)n(C)c1=O | 0% | -8%
O=C1CCSc2ccc(C(=O)Nc3ccc(Oc4ccccc4)cc3)cc2N1 | ? | ?
O=C(N/N=C/c1cccs1)c1cccc(Br)c1 | 158%[activator] | 19%
Cc1[nH]n(-c2nc3ccccc3[nH]2)c(=O)c1CCC(C)C | 0% | -24%
CC(=O)c1cccc(S(=O)(=O)Oc2ccc3c(C(F)(F)F)cc(=O)oc3c2)c1 | -2% | -2%

A draw from above in order of molar mass, low to high.
SMILES | 2A firefly | 2A Renilla
Cc1cccc(NC(=O)/C=C/c2cccs2)c1C | 158%[activator] | 8%
Clc1ccc(N/N=C/c2cccc3ccccc23)cc1Cl | 0% | 28%
COc1cccc(/C=C/c2nc(C#N)c(NCCc3ccc(OC)c(OC)c3)o2)c1 | -13% | 33%[activator]
O=C1CCCC2=C1C(c1ccc(Br)cc1)n1nc(-c3ccco3)nc1N2 (centres undefined) | 21% | 0%
COc1cc(OC)cc(-c2nc3nc(C)c(CCC(=O)Nc4ccc(C)c(C)c4)c(C)n3n2)c1 | 0% | -8%
COc1ccc(NC(=O)Cn2nc(SC)c(S(=O)(=O)c3ccc(C)cc3)c2N)cc1OC | -9% | 62%[activator]
Cc1ccccc1Cn1c(=O)n(CCCCCC(=O)NCc2ccc3c(c2)OCO3)c(=O)c2sccc21 | 31%[activator] | -4%

Continued.
SMILES | 2A firefly | 2A Renilla
Cc1onc(-c2ccccc2)c1C(=O)Nc1nnc(C(C)C)s1 | 1% | 4%
Cc1ccc2c(c1)C(C)(C)C1(/C=C/c3ccccc3F)NC(=O)CN21 (centres undefined) | -6% | 6%
Nc1nccnc1C(=O)NCc1cccnc1Oc1cccc(F)c1 | 5% | 8%
CCOC(=O)N1CCN(C(=O)Cn2c(=O)[nH]c3ccccc3c2=O)CC1 | 7% | 1%
O=C(NCc1ccco1)c1ccc2c(c1)N(Cc1ccc(Cl)cc1)C(=O)c1ccccc1S2(=O)=O | -12% | 24%
CCOC(=O)N1CCc2c(sc3c2c(=O)n(Cc2ccccc2)c(=O)n3CC(=O)Nc2ccccc2F)C1 | 3% | -5%
Cc1c(NC(=O)c2ccco2)cccc1C(=O)O | ? | ?

Compound profiles, as listed above.
Nc1nccnc1C(=O)NCc1cccnc1Oc1cccc(F)c1 is entered as 2A firefly: 5%; 2A Renilla: 8%
O=C(NCc1ccco1)c1ccc2c(c1)N(Cc1ccc(Cl)cc1)C(=O)c1ccccc1S2(=O)=O is entered as 2A firefly: -12%; 2A Renilla: 24%

Screening results (PubChem BioAssay)
